PrP UTR inh: inhibition of PrP 5' UTR reporter expression; cell-based PrP 5' UTR mRNA reporter, plate reader; inhibition, % (concentration not given with the values); 340,000 tested, 0.35% active;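 active = every replicate at 50% or more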;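 also: 0 = median of the neutral control wells; tested in H4 reporter cells; numbers are from one replicate; inactives centre near -14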
Mtb hypoxia inh: PubChem AID 1159583; 300,000 tested, 0.1% active; M. tuberculosis hypoxia-regulated fluorescent reporter, fluorescence; fluorescence inhibition, % (no concentration beside the values);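 active = 35 to 45% if threefold the growth effect, above 45% if 1.5-fold the growth effect; inactive = the rest, general growth blockers included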;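 also: wells of about 50 µL received 100 nL stock; 0% = vehicle wells and 100% = reference inhibitor wells; whole bacteria with a GFP reporter of the hypoxia response; strong numbers were not always called active; many hits fall short of the cut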
Sa ugtP lethal: growth inhibition of ugtP-null S. aureus, primary screen, RN4220 ugtP deletion, OD600; growth inhibition, % (concentration not given with the values); AID 1259309, 2017; 330,000 tested, 0.54% active; 16 h; some inactives read as strong as hits;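 active = z-score under -3 and OD600 up to 0.15 on both plates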;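 also: plate controls were untreated wells for no effect and antibiotic for full effect; wells of about 80 µL received 100 nL stock; the first replicate is given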
Autofluor counter: flagged as autofluorescent in microsphere protease counterscreen. 360,000 tested, 3.1% active. AID 624483. compound autofluorescence counterscreen, microsphere flow cytometry; active compounds read high. fluorescence intensity (no concentration beside the values);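 active = at least 3 SD above the mean of all compounds, about 16000 in these data; inconclusive = too few beads counted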;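 also: 100 nL of 1 mM stock went into each well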
Sa RN4220 lethal: growth inhibition of S. aureus RN4220, primary screen, OD600 | AID 1259311, 2017 | 330,000 tested, 0.33% active | inhibition, % (concentration not given with the values) | 16 h;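 active = z-score of -3 or lower and OD600 up to 0.18 on both plates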;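 also: plate controls were untreated cells for no effect and reference antibiotic for full effect; stock transfer was 100 nL into about 80 µL; one replicate is shown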
BJeLR viability: MLPCN primary cell-based screen for lethality selective to Ras in HRASV12 cells | BJeLR (HRASV12) viability, CellTiter-Glo ATP luminescence, 48 h; reference of the scale not given here | inhibition, % (test concentration not listed) | 300,000 tested, 0.17% active | AID 1554, 2009;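 active = replicate mean above 50%; inconclusive = above 50% but judged a plate artefact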;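 also: 50 nL library stock added to about 25 µL; numbers are from one replicate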
Mtb hypoxia inh growth: further read-out of Mtb hypoxia inh, marked with its call; growth inhibition, %; measured here: M. tuberculosis growth (absorbance);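 0% = vehicle and 100% = reference antibiotic; read after six days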
* hit, by the source's call; ? = inconclusive; / = not tested or not shown.

SMILES | PrP UTR inh | Mtb hypoxia inh | Mtb hypoxia inh growth | Sa ugtP lethal | Autofluor counter | Sa RN4220 lethal | BJeLR viability
CCCCSC(=S)NC1CCS(=O)(=O)C1 (centres undefined) | -42 | 14 | 13 | 12 | 10505 | 1.4 | -3
Cc1ccn2cc(-c3ccc(O)c(O)c3)nc2c1 | 20 | 4 | -1 | -13 | 3818 | 4.7 | 5
COc1ccc(OC)c(S(=O)(=O)n2nnc3ccccc32)c1 | -10 | 2 | 11 | 1 | 6228 | 9.6 | -6
CC(OC(=O)CCN=C1NS(=O)(=O)c2ccccc21)C(=O)Nc1ccc(F)c(F)c1F (centres undefined) | -13 | 5 | -2 | 12 | ? | 5.8 | 4
CC(C)(CO)NCc1ccc(Br)cc1 | -27 | 4 | -6 | -1 | 4959 | 3.9 | 1
Cc1ccc(Cn2c(=N)c(C(=O)NCCN3CCOCC3)cc3c(=O)n4ccccc4nc32)cc1 | -2 | 14 | 0 | 11 | 4533 | 5.0 | -6
COc1ccc(/C=C/C(=O)CCC(=O)O)cc1 | -10 | 4 | 0 | 6 | 4412 | 6.4 | -5
COCCNC(=O)C1CCN(C(=O)c2cc3sccc3n2Cc2ccc(F)cc2)CC1 | -6 | 4 | 2 | 3 | 2284 | 4.3 | 6
O=[N+]([O-])c1ccc(-n2nnnc2CN2CCCCC2)cc1 | -20 | 10 | 9 | -1 | 2268 | 6.0 | -1
COc1cc(C=Nn2c(=S)[nH]nc(C)c2=O)cc([N+](=O)[O-])c1O | / | 19 | 6 | -1 | / | 2.5 | /
CCCC(=O)C1=C(O)C(C(=O)OC)C(C)(C)CC1=NCc1ccccc1 (centres undefined) | -116 | -5 | 4 | 2 | 4348 | 1.3 | -5
CC(C)c1ccc(C=NNc2ccc([N+](=O)[O-])cn2)cc1 | -63 | 16 | 6 | 2 | 2922 | 1.5 | /
CCNC(=S)NC(=NCc1cccnc1)Nc1nc(C)cc(C)n1 | -10 | 4 | 7 | 1 | 3859 | 2.0 | -15
Cc1cccc(-n2ncc3c2CCCC3NC(=O)CCc2ccncc2)c1C (centres undefined) | -26 | 13 | 4 | 6 | 5157 | 3.9 | 7
O=C(Cc1ncc(C(F)(F)F)cc1Cl)NCCc1ccccn1 | 5 | -5 | -12 | -5 | 4113 | -1.9 | 2
COc1ccc(C(=O)NCCCCNC(=O)c2ccc(OC)c(OC)c2)cc1OC | -22 | 1 | 2 | 3 | 3694 | 4.8 | -4
CN1CCCC1CCNC(=O)c1c(-c2ccsc2)sc2ccccc12 (centres undefined) | / | 2 | 11 | -1 | / | 1.6 | /
Cn1cnc([N+](=O)[O-])c1S(=O)(=O)Oc1cccc2ccccc12 | 11 | / | / | 91* | 2958 | 52 | /
COc1cccc(Oc2c(C)oc3c(CN4CCCCC4)c(O)ccc3c2=O)c1 | -4 | 10 | 9 | 8 | 4801 | 0.6 | -3
COCCNC(=O)c1cn(C)c2ccc(S(=O)(=O)N3CCCC3)cc2c1=O | -12 | 1 | 7 | 2 | 5516 | 3.3 | -3
CC1CCc2sc(C(=O)NC3CCN(Cc4ccccc4)CC3)cc2C1 (centres undefined) | -15 | 7 | 4 | 2 | 4053 | -2.8 | /
Cn1cc(S(=O)(=O)N2CCN(c3ccc(F)cc3)CC2)c(=O)n(C)c1=O | -14 | 8 | 8 | -4 | 4331 | -10 | -7
C=CCCC(Cc1ccc(F)cc1)C(=O)OC(CNC(=O)C(CC=C)CC(=O)N(CCO)Cc1ccccc1)c1ccccc1 (centres undefined) | / | 14 | 9 | 2 | / | -5.5 | /
COc1cccc(OCC(=O)NC2CCCCC2)c1 | -20 | / | / | 5 | 12279 | 4.9 | 3
NC(=O)c1ccc(NC(=O)COc2coc(CN3CCc4ccccc4C3)cc2=O)cc1 | -14 | 3 | -8 | 6 | 5370 | 2.2 | 3
COc1ccc(S(=O)(=O)N(n2c(C)nnc2-n2nc(C)cc2C)S(=O)(=O)c2ccc(OC)cc2)cc1 | -3 | / | / | 9 | ? | 6.7 | -3
Fc1cccc(Cc2noc(CN3CCSCC3)n2)c1 | -11 | 13 | 6 | 6 | 5082 | 1.4 | -1
Cc1cc(C(=O)CN2C(=O)NC3(CCCc4ccccc43)C2=O)c(C)n1C (centres undefined) | -5 | 8 | 5 | -1 | 3626 | -9.2 | /
Cc1ccccc1CN(C)CCS(=O)(=O)c1cc(Cl)ccc1Cl | -34 | / | / | / | 3681 | / | -4
CCCN=C1CC(C)(C)CC(=O)/C1=C(\O)CCCN1C(=O)c2ccccc2C1=O | / | 2 | 3 | 0 | / | -0.3 | /
CCc1[nH]c(=O)c(C#N)c2c1COC(C)(C)C2 | -8 | -3 | 2 | 2 | 10854 | 3.0 | -4
CNC(=S)N/N=C/c1cc(Br)cc(Br)c1O | -51 | / | / | / | 2467 | / | -6
O=[N+]([O-])c1cccc(CN2CCN(S(=O)(=O)Cc3ccccc3)CC2)c1 | -11 | 2 | 17 | 5 | 5775 | 0.2 | 8
N#CCc1ccnc2ccccc12 | -8 | -1 | 7 | -1 | 3796 | 1.5 | /
CCCCN(Cc1cc2cc(OC)ccc2[nH]c1=O)C(=O)c1ccccn1 | -9 | / | / | -3 | 2765 | -3.5 | -4
CCN(CC(=O)NCc1cccs1)c1ccc(S(=O)(=O)N2CCOCC2)cn1 | -13 | -8 | 2 | 2 | 4294 | -0.4 | -15
O=c1cc2oc3cc(O)c(O)cc3c(-c3ccccc3[N+](=O)[O-])c-2cc1O | 1 | 24 | -39 | -23 | 3385 | 15 | 24
NS(=O)(=O)c1ccc(CNC(=O)COc2ccc3c4c(c(=O)oc3c2)CCCC4)cc1 | -16 | 0 | 8 | 11 | 5346 | 4.0 | 4
Cc1[nH]c2ccc3ccccc3c2c(=O)c1C/C=C/Cl | 5 | -5 | 0 | 0 | 4085 | -4.1 | -15
N#Cc1ccc(-c2ccc(C3Nc4ccccc4C(=O)N3O)o2)cc1 (centres undefined) | 0 | 7 | 7 | 16 | 3894 | 6.1 | /
CCOC(=O)C1=C2N(C)c3ccccc3N2CCC1=O | -5 | / | / | 2 | 4269 | 1.3 | /
CN1CCN(C(=O)N(c2ccccc2)c2ccccc2)CC1 | -22 | 13 | -1 | 1 | 3397 | 1.4 | -9
O=C(CN1C(=O)C2(OCCO2)c2cc(Br)ccc21)NO | -18 | -15 | -5 | 29 | 3253 | 3.1 | -17
CCCC(c1nnnn1C1CCCCC1)N1CCN(C(=O)c2ccco2)CC1 (centres undefined) | -9 | 16 | 7 | 3 | 3731 | 3.8 | 1
CCOc1ccc(/C=C/C(=O)N(C)CC(=O)Nc2cccc(F)c2)cc1OCC | -12 | / | / | / | 6456 | / | -5
CCCn1c(SC(C(=O)Nc2cc(C)ccc2OC)c2ccccc2)nc2ccccc2c1=O (centres undefined) | -7 | 1 | 10 | 5 | 2533 | -0.5 | -2
CCc1c(C)c(C#N)c2nc3ccccc3n2c1N1CCN(c2cc(C)ccn2)CC1 | / | 6 | 6 | 7 | / | 0.9 | 0
COc1ccccc1S(=O)(=O)NCc1ccc(C(=O)N(C)Cc2ccc(F)cc2)cc1 | -24 | 6 | 0 | 7 | 6821 | 3.1 | /
Cc1cccc[n+]1CC(=O)Nc1ccccc1 | -19 | 10 | -5 | 3 | 4187 | 1.9 | 16
O=C(/C=C/c1ccco1)OCC(=O)c1ccc(OC(F)F)cc1 | -34 | 10 | 8 | -2 | 4150 | 14 | /

Four entries already listed, ordered by SMILES length, rising.
SMILES | PrP UTR inh | Mtb hypoxia inh | Mtb hypoxia inh growth | Sa ugtP lethal | Autofluor counter | Sa RN4220 lethal | BJeLR viability
Cc1cccc[n+]1CC(=O)Nc1ccccc1 | -19 | 10 | -5 | 3 | 4187 | 1.9 | 16
O=C(/C=C/c1ccco1)OCC(=O)c1ccc(OC(F)F)cc1 | -34 | 10 | 8 | -2 | 4150 | 14 | /
CCOc1ccc(/C=C/C(=O)N(C)CC(=O)Nc2cccc(F)c2)cc1OCC | -12 | / | / | / | 6456 | / | -5
CCCn1c(SC(C(=O)Nc2cc(C)ccc2OC)c2ccccc2)nc2ccccc2c1=O (centres undefined) | -7 | 1 | 10 | 5 | 2533 | -0.5 | -2

Additional structures.
SMILES | PrP UTR inh | Mtb hypoxia inh | Mtb hypoxia inh growth | Sa ugtP lethal | Autofluor counter | Sa RN4220 lethal | BJeLR viability
COc1ccc(S(=O)(=O)N2CCOCC2)cc1NC(=O)CSc1nnc(N)s1 | -11 | -3 | 10 | 5 | 5369 | -0.5 | -7
C=CCNc1nc(C(=O)OCC(=O)NCc2ccccc2OC)cs1 | -5 | -2 | 1 | -3 | 4837 | -1.3 | 1
COCCCNC(=O)/C(C#N)=C/c1c(N2CCN(c3ccccc3)CC2)nc2ccccn2c1=O | -20 | 11 | 8 | 0 | 3861 | 0.5 | 2
CCc1ccc(OCC(=O)NC2CCCCC2)c(Br)c1 | -83 | 12 | 5 | 1 | 5847 | 3.2 | -10
O=C(CSc1nc2nc(-c3cccs3)cc(C(F)(F)F)c2c(=O)[nH]1)NCc1ccco1 | -16 | 18 | 9 | -1 | 3077 | -13 | 1
COc1ccc(-c2cc(C(=O)NN=C(C)c3ccco3)c3ccccc3n2)c(OC)c1 | / | 8 | 4 | 7 | / | 3.4 | /
Cc1ccc(NC(=O)/C=C/c2ccco2)nc1 | 70* | 12 | 4 | 3 | 2413 | 5.3 | 44
Cc1cc(C)n(-c2nc(NCCN(C)C)c3c4c(sc3n2)COC(C)(C)C4)n1 | / | 10 | 14 | -1 | 3541 | 1.0 | -7
COc1ccc(CCC(=O)O)cc1OC | -13 | 8 | 3 | 1 | 4472 | 4.6 | -16
CC(C)Cn1c(SCc2nnc(-c3cccs3)o2)nc(O)cc1=O | -28 | / | / | 3 | 4688 | 6.0 | 6
CC(C)C[C@H](NC(=O)OC(C)(C)C)C(=O)N/N=C/c1ccc2nccnc2c1 | -12 | / | / | / | 7680 | / | -6
CC(=O)Nc1ccc(N(C(=O)CNC(=O)c2cccs2)C(C(=O)NCC2CCCO2)c2ccccc2)cc1 (centres undefined) | -6 | -8 | -7 | 5 | 3484 | -4.4 | 5
Cc1cccc(C)c1NC(=O)CN1CCN(C(=O)CNC(=O)c2ccc(N3CCCC3=O)cc2)CC1 | -2 | 2 | 7 | 3 | 8823 | 4.9 | /
COc1ccc(S(=O)(=O)Cc2ccc(C(=O)N3CCN(c4ncccn4)CC3)o2)cc1 | -3 | / | / | 8 | 5141 | 4.4 | /
Cc1cccc(C(C(=O)NC2CCCC2)N(Cc2cccnc2)C(=O)c2csnn2)c1 (centres undefined) | -23 | 7 | 0 | -4 | 3793 | 1.4 | -4
COc1ccc(CCNC(=O)c2cc(C3CC3)nc3c2cnn3C(C)C)cc1 | -4 | 9 | 12 | 4 | 3981 | -4.3 | /
CC(C)(C)c1ccccc1N=Cc1ccc2ccccc2n1 | -3 | 2 | -5 | -1 | 2325 | -13 | -4
NCCCCC(C(=O)N1CCNCC1)n1cc(CN)nn1 (centres undefined) | / | 3 | -3 | -3 | / | 2.7 | /
Cc1cc(-c2nnc(CCC(=O)NC(C)c3cccc4ccccc34)o2)no1 (centres undefined) | 0 | 9 | 5 | -3 | 4318 | 2.6 | 4
COC1CCCN(C(=O)c2ccc3oc(Cc4ccc(Cl)cc4)nc3c2)C1 (centres undefined) | -17 | 9 | 1 | 9 | 5821 | 0.9 | 0
COc1ccc(CCNC(=O)c2ccc(Cl)cc2)cc1 | -17 | 37* | 58* | -3 | 4343 | -3.3 | 13
Cc1cc(C(C)(C)C)nc2[nH]n(-c3ccccc3)c(=O)c12 | -27 | 5 | 4 | -4 | 20895* | 0.3 | -4
Cc1ccc(CNC(=O)CSc2nnc(CNC(=O)c3ccccc3)o2)cc1 | 5 | 7 | -3 | 6 | 4405 | 0.9 | -1
COc1ccc(CCC(=O)OCc2csc(CC(=O)Nc3ccc(C)cc3)n2)cc1OC | -47 | 6 | 0 | 2 | 4201 | 5.6 | /
Cn1c(CC(=O)NNC(=O)c2ccccc2[N+](=O)[O-])nc2ccccc21 | / | 4 | 4 | 1 | / | 1.0 | /
CCc1nc(N)c(C#N)c(-c2cccn2C)c1C | -29 | 6 | 6 | 2 | ? | 1.2 | 5
